# VDR inh – blocks the human vitamin D receptor; VDR-SRC2-3 peptide fluorescence polarization, 2 h; Potency, µM, for the others: max response, negative = inhibition, actives largely listed as inhibitors; 400,000 tested, 0.93% active; active means well fitted inhibition curve with a large enough effect; inconclusive means small, poorly fitted or top-dose-only effect, or another doubt; inactive means no such curve, though single readings can be large or run the other way; further: series mostly up to about 120 µM
# Target sequence (P11473 whole entry, looked up): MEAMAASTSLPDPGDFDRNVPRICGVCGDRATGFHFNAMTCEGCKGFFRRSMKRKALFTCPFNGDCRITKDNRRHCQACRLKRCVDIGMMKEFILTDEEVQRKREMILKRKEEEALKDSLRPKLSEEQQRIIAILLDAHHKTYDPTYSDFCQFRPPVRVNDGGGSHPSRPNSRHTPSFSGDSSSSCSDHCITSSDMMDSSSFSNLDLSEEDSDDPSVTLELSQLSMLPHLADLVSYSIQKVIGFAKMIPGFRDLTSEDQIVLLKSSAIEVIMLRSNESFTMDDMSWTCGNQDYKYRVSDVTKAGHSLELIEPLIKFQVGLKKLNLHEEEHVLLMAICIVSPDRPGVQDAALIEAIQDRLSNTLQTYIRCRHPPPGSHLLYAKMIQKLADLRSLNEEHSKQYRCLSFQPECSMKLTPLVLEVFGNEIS
#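 Fluorescence polarization assay of small-molecule disruption of VDR binding to coregulator peptide SRC2-3. Compounds and controls pin-transferred, then read after 2 h incubation at ambient room temperature.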
# Numbers without * were called inactive; ? = inconclusive; & = joins results of further samples; [ ] = dose if it differs, or a comment. On the % scale 0 is the no-effect control and ±100 the full control effect; potency means the concentration at half of the fitted maximal effect.
SMILES,VDR inh
COc1ccc(NC(=O)c2[nH]ncc2[N+](=O)[O-])cc1,?
Cc1nn(-c2ccccc2)c(C)c1C(=O)OCC(=O)NC(=O)NC1CCCC1,18.2%
CSc1ccc(CCNc2ncnc3onc(C)c23)cc1,7.1%
COc1cc(NC(=O)c2ccc3nsnc3c2)cc(OC)c1OC,14.1%
COc1ccccc1CNC(=O)COC(=O)c1ccc(S(=O)(=O)N2CCCC2)cc1,-16.1%
COc1ccc2nc(NC(=O)Cn3cnc4ccccc4c3=O)sc2c1,-12.6%
COc1ccccc1/C=C/C(=O)c1ccc(Cl)cc1,?
O=C(NC(=S)Nc1ccc2cn[nH]c2c1)c1ccccc1,-11.7%
CCOC(=O)C1=C(COC(=O)CC(C)c2ccccc2)NC(=O)NC1C (stereo not given),-10.9%
CC(=O)c1ccc(N2CCN(C(=O)CCCc3nc4ccccc4s3)CC2)cc1,4.3%
CC(=O)OCOC(c1ccc2ccccc2c1)P(=O)(OCOC(C)=O)OCOC(C)=O (stereo not given),-5.8%
Cc1ccccc1C(=O)Nc1ccccc1-c1nnn(CC(=O)Nc2ccc3c(c2)OCCO3)n1,2.1%
COc1ccc(N/C=C2/Sc3ccccc3NC2=O)cc1,11.0%
O=C(CSc1n[nH]c(-c2cccnc2)n1)Nc1ccc([N+](=O)[O-])cc1Br,-18.7%
CCOc1ccccc1CNC(=O)CCCn1ncn2c(cc3occc32)c1=O,-9.4%&-6.3%
CCc1cc(=O)oc2cc(C)cc(OC(C)C(=O)NC3CCN(Cc4ccccc4)CC3)c12 (stereo not given),25.6%
Cc1nc(-c2cccc(NS(=O)(=O)c3cccc4ccccc34)c2)cs1,2.5%
Nc1ccc(Oc2cc(N)cc(Oc3ccccc3)c2)cc1,-1.5%
CCOc1ccc(NC(=O)CCC(=O)OC)cc1,2.5%
CCOC(=O)c1ccc(N=Cc2cnc(N)nc2N)cc1,3.5%
COc1ccc(N2C(=O)NC3CC2(C)Oc2ccc(Cl)cc23)cc1OC (stereo not given),9.3%
COc1cc2nc(=S)n(CCCN3CCOCC3)c(N)c2cc1OC,-1.0%
Cc1ccc(Oc2ncnc(N)c2[N+](=O)[O-])cc1,-6.1%
O=C(CNC(=O)c1ccc2c(c1)OCCO2)N/N=C/c1ccc([N+](=O)[O-])cc1,9.2%
Cc1cc(NS(=O)(=O)c2ccc(NC(=O)CCc3ccccc3)cc2)no1,2.4%
N#Cc1cccc(NCC(=O)Nc2cccc(S(=O)(=O)N3CCCCC3)c2)c1,-5.9%
CN1CCN(C(=O)C2CCN(S(=O)(=O)c3ccccc3[N+](=O)[O-])CC2)CC1,-20.5%
COc1ccccc1CNC(=O)COC(=O)Cc1cccc(F)c1,-18.8%
CCc1ccc(OCC(=O)NNC(=O)Cc2ccc(S(=O)(=O)N3CCOCC3)s2)cc1,7.3%
Cc1ccc([N+](=O)[O-])cc1Nc1nc(N2CCCC2)nc(N2CCCC2)n1,79.4µM*
O=C(Cc1c(Cl)cccc1Cl)Nc1ccc(S(=O)(=O)Nc2ncccn2)cc1,11.5%
CCn1c(Cc2ccccc2)nnc1SCC(=O)Nc1cc(C)on1,-15.3%
Cc1sc(NC(=O)c2ccco2)c(C(Nc2ccccn2)c2ccccc2)c1C (stereo not given),-19.6%
COc1ccccc1CNC(=O)COC(=O)CC1CC2CCC1C2 (stereo not given),1.4%
Cn1cnnc1Sc1ccc(C(=O)OCC(=O)Nc2cc(Cl)cc(Cl)c2)cc1[N+](=O)[O-],-5.8%
COCCN1Cc2cccc(C(=O)NC3CCCCCC3)c2C1=O,-0.5%
O=C(CSc1ccccc1F)NNC(=O)c1ccncc1,-9.6%
Cc1ccc(OCC(=O)OCc2cc(=O)n3nc(-c4cccs4)sc3n2)cc1,23.9%
CC(C)(C)c1ccc(-n2ncc3c2CCCC3NC(=O)CCN2CCCO2)cc1 (stereo not given),33.1%[activator]
COc1cc(-c2nnc(SCC(=O)c3ccccc3)o2)cc(OC)c1OC,10.5%
CC(c1ccccc1C(O)c1ccccc1)N(C)C (stereo not given),11.2%
CC(OC(=O)c1ccc(Cl)c(S(=O)(=O)N2CCOCC2)c1)C(=O)Nc1ccc(S(N)(=O)=O)cc1 (stereo not given),-1.2%
Cn1nnnc1SCCNCC#Cc1ccccc1,9.0%
Cc1onc(-c2ccccc2Cl)c1C(=O)N1CCc2ccccc21,-9.5%
CC(C)c1ccc(NC(=O)Cn2c(=O)n(CC3CCC(C(=O)NCCc4ccccc4)CC3)c(=O)c3ccccc32)cc1 (stereo not given),-21.6%
Cc1cccc(NC(=O)c2cccnc2Oc2ccccc2)c1C(=O)O,-6.2%
COc1ccc(-n2ccnc(SCC(=O)NCc3ccc(C)cc3)c2=O)cc1Cl,-20.6%
COC(=O)[C@H](CCSC)NC(=O)N1CCC(C)CC1,4.9%
O=C1C=C(O)C(n2cncn2)C(c2ccc3c(c2)OCO3)C1 (stereo not given),-11.7%
CC(C)c1cnc2c(c1SCC(=O)Nc1ccc(OC(F)(F)F)cc1)c(=O)n(C)c(=O)n2C,5.7%

# Next section
SMILES,VDR inh
COCCn1c(-c2ccc(OC)cc2)cnc1SCC(=O)Nc1ccc(OC)cc1OC,-27.4%
CCN(CC)S(=O)(=O)c1ccc(N=N/C(C(C)=O)=C(/C)O)cc1,6.1%
CC/C(C)=N\N=C\c1c(O)n(CC)c2cc(C3=NNC(=O)CC3)ccc12,-10.5%
Cc1c(C(=O)N2CCCCC2)c(S(=O)(=O)N2CCN(c3ccccc3F)CC2)c(C)n1C,8.7%
O=C(COC(=O)c1ccc(F)c(S(=O)(=O)N2CCOCC2)c1)Nc1ccc2c(c1)OCO2,-12.0%
COc1ccc(CCNC(=O)c2nc(SCc3ccc(F)cc3)ncc2Cl)cc1OC,-5.5%
CCOc1ccc(NC(=O)CSc2nc3cccnc3n2CC)cc1,-12.1%
O=C(COC(=O)c1cccc(S(=O)(=O)N2CCCCC2)c1)NC1CCCCC1,-5.7%
N#Cc1c(NC(=O)c2ccccc2)sc2c1CCCCC2,2.8%
COCCNc1c2c(nc3c(-c4ccccc4)c(C)nn13)CCCC2,0.1%
CCc1nc(NCCN2CCOCC2)c(C#N)c2c1CCCC2,-3.2%
Brc1ccc2c(c1)OCCOCCOCCOCCOCCO2,-20.0%
Fc1ccc(Nc2nc(N/N=C/c3ccco3)nc(N3CCCCC3)n2)cc1,-5.3%
CCOC(=O)C1CCN(c2c(-c3ccccc3)c3cc(Cl)ccc3[nH]c2=O)CC1,-12.2%
O=S(=O)(NCc1ccccc1)c1ccc(-n2cccn2)cc1,7.6%
CN(CCC(=O)Nc1ccc(Cl)cc1)Cc1ccccc1,20.7%
Cc1ccc(C(=O)NCC(=O)NCc2cc(=O)n(C)c(=O)n2C)cc1C,5.0%
CC(=O)N(Cc1c(C)nn(-c2ccccc2)c1Cl)c1ccc(Cl)cc1,-11.8%
COc1ccc(C2=NOC(C)(c3nnc(-c4ccncc4)o3)C2)cc1 (stereo not given),1.4%
CCCC(=O)NCCc1c2n(c3ccc(OC)cc13)CCCc1ccccc1-2,-0.3%
CC(OC(=O)c1cc(=O)c2ccccc2o1)C(=O)Nc1ccc(N(C)C)cc1 (stereo not given),-9.9%
COC(=O)/C=C1\S/C(=N/N=C/c2ccco2)NC1=O,8.1%
CCOc1ccc(S(=O)(=O)n2cnc(C)c2)cc1,3.7%
CC1=CN2C(=NC(=O)CC2(C)C(=O)N(CC(=O)NC2CCCC2)c2cc(C)cc(C)c2)C=C1 (stereo not given),2.2%
CC1=C(C(=O)OC2CCCCCCC2)C(c2cccc(O)c2)NC(=O)N1 (stereo not given),-12.1%
OCc1ccc(Cl)cc1Cl,13.8%
COc1cccc2c1oc1c(SCc3nc4ccccc4[nH]3)nc(C)nc12,6.0%
O=C(COC(=O)Cc1ccc(Cl)cc1)NCCc1ccccc1,-0.9%
COc1ccc(-c2cc(OC(=O)c3ccccc3Cl)c3c(C)oc(C)c3c(=O)c2)cc1OC,8.7%
Nc1c(Cl)cc(-c2cn(CCC(=O)O)c(-c3ccncc3)n2)cc1Cl,-2.5%
O=C(Nc1ccccc1F)C(=Cc1sc(N2CCOCC2)nc1-c1ccccc1)C(=O)Nc1ccccc1F,5.0%
O=C(Nc1ccc(C(=O)O)cc1)/C(=C\c1ccc2c(c1)OCO2)NC(=O)c1ccco1,-17.4%
CCN1C(=O)N(CC)C2C1N(CO)C(=O)N2CO (stereo not given),-20.4%
Cc1ccc(SC(CC(=O)c2ccc(C(C)(C)C)cc2)C(=O)O)cc1 (stereo not given),20µM*
COC(=O)c1cc2nc(-c3ccc(OC)c(OC)c3)cc(C(F)(F)F)n2n1,10.0%
Cc1ccccc1CN1CCC(CNC(=O)c2cc3ccc4cccnc4c3[nH]2)CC1,-1.3%
COc1ccc(N2CCN(C(=O)c3ccc4c(=O)n(CC5CCCO5)c(=O)[nH]c4c3)CC2)cc1 (stereo not given),-1.8%
COc1ccc2[nH]c(=O)c(CN(CCO)S(=O)(=O)c3c(C)ccc4nsnc34)cc2c1,9.9%
CCOC(=O)Cn1nc(C)n(-c2c(C)cccc2C)c1=O,-9.5%
O=C(COc1ccccc1)N1CCN(S(=O)(=O)c2ccc(Cl)cc2)CC1,-16.3%
N#Cc1nc(COc2ccccc2F)oc1NCc1ccc(F)cc1,?
CS(=O)(=O)Nc1ccc(C2=NN(C(=O)CCCC(=O)O)C(c3cccs3)C2)cc1 (stereo not given),12.8%
O=C(CN(Cc1ccccc1Cl)C(=O)CNS(=O)(=O)c1ccc(F)cc1)NCC1CCCO1 (stereo not given),0.3%
C=CCOc1cccc(C2c3c(oc4ccccc4c3=O)C(=O)N2c2ccccn2)c1 (stereo not given),4.9%
Cn1nnnc1SCC(=O)NCC(=O)c1ccccc1,-19.7%
CCC(=O)N1CCN(c2ccccc2NC(=S)NC(=O)c2ccco2)CC1,-15.7%
COc1ccc(Cl)cc1-n1c(C)cc(C=O)c1C,-10.7%
CCOC(=O)Nc1ccc2c(c1)C(=NNC(N)=S)c1ccccc1-2,-12.8%
CN(CC(=O)OCC(N)=O)S(=O)(=O)c1ccc(Cl)cc1,-17.2%
CCOC(=O)CN(C)C(=O)C1CC(CO[Si](C)(C)C(C)(C)C)=CN1C(=O)OC(C)(C)C (stereo not given),1.7%

# (continued)
SMILES,VDR inh
CCN(CC)C(=O)CSc1nc2cc3c(cc2c(=O)n1Cc1ccc(C(=O)NCCc2ccc(OC)c(OC)c2)cc1)OCO3,7.0%
C=CCN1C(=O)C(CC(=O)NCC)SC1=Nc1ccccc1OC (stereo not given),19.9%
CCCC(O)(c1ccc(OC)cc1)C(CN(C)C)c1ccccc1 (stereo not given),-0.2%
COC(=O)c1nn(-c2ccc(F)cc2)ccc1=O,13.8%
Cc1cc(NC(=O)c2ccc3nccnc3c2)ccc1Br,-0.8%
CC(C)N(CCn1c(SCC(=O)N2CC(=O)Nc3ccccc32)nc2ccccc2c1=O)C(C)C,0.3%
CC(=O)c1cccc(NC(=S)NNC(=O)c2ccc(C)c([N+](=O)[O-])c2)c1,-5.6%
Cc1ccnc(SCC(=O)Nc2sc3c(c2C#N)CCC(C(C)(C)C)C3)n1 (stereo not given),2.5%
O=C(Nc1ccc(F)c(F)c1)NC1CCCCC1,-7.9%
COc1ccc(CCNC(=O)C2=C(C)C(=O)OC23CCCCC3)c(OC)c1OC,-1.2%
CCC1C(=O)N(c2nc(C)cc(C)n2)N=C1C (stereo not given),8.0%
O=C(CNC(=O)C1COc2ccccc2O1)Nc1cc(Cl)ccc1Cl (stereo not given),-3.9%
O=C(NCc1ccco1)c1ccc2c(c1)CCO2,-16.6%
CSc1nc(=O)c2c(n1C)NC(=O)CC2c1ccccc1OC(C)C (stereo not given),24.0%
Cc1oc2ncn(C)c(=O)c2c1C(=O)Nc1ccc(F)cc1,0.9%
OC(CNC1Cc2ccccc2C1)c1ccccc1 (stereo not given),-2.1%
CCOC(=O)c1cnc2c(OC)cccc2c1N1CCN(c2ccccn2)CC1,-9.5%
COc1ccc(C2CC(c3ccc(Br)cc3)=NN2C(=O)CSC2=NCCS2)cc1 (stereo not given),7.7%
O=C(O)c1ccn(CSc2cc(Cl)ccc2Cl)n1,12.3%
CC[C@H](C)[C@H](NC(=O)[C@H](CC(C)C)NC(=O)[C@@H](N)CO)C(=O)NCC(=O)N[C@@H](CCCN=C(N)N)C(=O)N[C@@H](CC(C)C)C(=O)O,-4.6%
C/C(=N\N=C1\NC(=O)C(CC(=O)Nc2ccccc2F)S1)C1CCCCC1 (stereo not given),-8.9%
Cc1cc(/C=N/n2cnnc2)c(O)c([N+](=O)[O-])c1,-25.7%

# Compound activity: PubChem BioAssay, National Center for Advancing Translational Sciences (NCATS)

# Some of the compounds tested; the hit share may differ from the screen's.
